High-throughput results from PubChem BioAssay.
TDP1 cell CPT: qHTS for Inhibitors of human tyrosyl-DNA phosphodiesterase 1 (TDP1): qHTS in cells in presence of CPT | chicken DT40 Tdp1-/-;hTDP1 cells + 20 nM CPT, ATP luminescence, 48 h | Potency, µM (series often up to 46.2 µM), for the others: at the top dose activity change, negative = growth inhibition, usual class: inhibitors | 12% of 420,000 active; further: nearly all actives have a fitted effect of over 55% in size
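Chicken DT40 Tdp1-/- cells complemented with human TDP1, 400 cells/well, exposed to compounds plus 20 nM camptothecin for at least 48 h at 37 C; viability read as ATP content by CellTiter-Glo luminescence.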
N370S GC mod: qHTS Assay for Inhibitors and Activators of N370S glucocerebrosidase as a Potential Chaperone Treatment of Gaucher Disease; Lysosomal acid glucosylceramidase (Homo sapiens), P04062; N370S GC spleen homogenate, 4MU-glucoside fluorescence; Potency, µM (doses to about 59.4 µM), for the others: at the top dose activity change, negative = inhibition, actives largely listed as inhibitors; 0.092% of 330,000 active;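 further: 0% = full enzyme activity and -100% = no enzyme basal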
Active calls of the source: *. The call rests on the fitted dose curve; in most records, active means well fitted curve in the direction sought with a large enough effect; inconclusive means small, poorly fitted or top-dose-only effect, or another doubt; inactive means no such curve, though single readings can be large; an effect the other way counts as inactive or inconclusive. Unless noted, on the % scale 0 is the no-effect control and ±100 the full control effect; potency means the concentration at half of the fitted maximal effect. These rows are one share of the data; most or all hits stand in other tables.

For CC(=O)N1N=C(c2cccs2)CC1c1ccc(C)o1 (stereo not given) the results were TDP1 cell CPT -2% and N370S GC mod -19%.
For Cc1ccc(C(=O)C2=C(O)C(=O)N(Cc3cccnc3)C2c2ccc(Cl)cc2)o1 (stereo not given) the results were TDP1 cell CPT 10% and N370S GC mod -13%.
`O=C1CN(C(=O)C2CCC(=O)N(CCc3ccc(Cl)cc3)C2)CCN1` (stereo not given) gave TDP1 cell CPT -12% and N370S GC mod 1%.
COc1cc(C)c(Br)cc1S(=O)(=O)N1CCCC1 was read as TDP1 cell CPT -9% and N370S GC mod 8%.
`O=C(Cn1ncc2c(=O)oc3ccccc3c21)NCC1COc2ccccc2O1` (stereo not given) gave TDP1 cell CPT inconclusive and N370S GC mod 2%.
`CCCCCc1nnc(NC(=O)C2CCCO2)s1` (stereo not given) gave TDP1 cell CPT -3% and N370S GC mod 5%.
For COC(=O)CNC(=O)COC(=O)/C=C/c1ccccc1[N+](=O)[O-] the results were TDP1 cell CPT -26% and N370S GC mod -5%.
`CC(=O)c1ccc(N2C(=NC(=O)COc3ccccc3)SC3CS(=O)(=O)CC32)cc1` (stereo not given) gave TDP1 cell CPT 0% and N370S GC mod 1%.
CC(C)(C)OC(=O)NCCCCc1cn(CC(=O)N2CCN(C(=O)OC(C)(C)C)CC2)nn1 was read as TDP1 cell CPT inconclusive and N370S GC mod -3%.
Screening N#Cc1ccc(CSc2nnc3ccccn23)cc1 returned TDP1 cell CPT 5% and N370S GC mod 3%.
`CO/N=C(\Cn1ncc(N2CCCC2)c(Br)c1=O)c1ccc(Cl)cc1` gave TDP1 cell CPT inconclusive and N370S GC mod 13%.
For COCCCNc1nc(=S)[nH]c2cc(OC)c(OC)cc12 the results were TDP1 cell CPT -8% and N370S GC mod 5%.
`CC(C)CN(C1CCS(=O)(=O)C1)S(=O)(=O)c1ccc(C(C)C)cc1` (stereo not given) gave TDP1 cell CPT inconclusive and N370S GC mod 0%.
For CC(C)CSc1nc2ccccc2n1CC(N)=O the results were TDP1 cell CPT -14% and N370S GC mod 6%.
FC(F)(F)c1ccccc1NC(=S)Nn1cnnc1 was read as TDP1 cell CPT inconclusive and N370S GC mod -3%.
`CCn1ncc(/C=C/C(=O)Nc2c(C)nn(CC)c2C)c1C` gave TDP1 cell CPT -20% and N370S GC mod 3%.
Screening Cc1cc(-c2nnc(CCC(=O)N(C)CCc3ccccc3)o2)no1 returned TDP1 cell CPT -22% and N370S GC mod 3%.
For CN1CCCN(C(=O)c2cccc3ccccc23)CC1 the results were TDP1 cell CPT 2% and N370S GC mod -24%.
For O=C(NN1C(=O)c2ccccc2NC1c1ccc([N+](=O)[O-])o1)c1ccc([N+](=O)[O-])cc1 (stereo not given) the results were TDP1 cell CPT 18µM* and N370S GC mod -5%.
CCO[C@H]1OC(C(=O)N2CCN(C)CC2)=C[C@@H](C)[C@@H]1CCCO was read as TDP1 cell CPT -3% and N370S GC mod 2%.
Screening CN(CC(=O)N1CCCC1)S(=O)(=O)c1ccc2ccccc2c1 returned TDP1 cell CPT inconclusive and N370S GC mod 6%.
For CC(OC(=O)C1CSC2(c3ccc(F)cc3)CCC(=O)N12)C(=O)NC(N)=O (stereo not given) the results were TDP1 cell CPT 1% and N370S GC mod 2%.
Cc1c(C(=O)NCc2ccccc2)cnn1-c1ccccc1 was read as TDP1 cell CPT -16% and N370S GC mod 1%.
COC1=C(Nc2ccccc2OC)C(=O)c2ccccc2C1=O was read as TDP1 cell CPT -4% and N370S GC mod -2%.

The closing 2 records of the section before lead into the next.
Cc1c(C(=O)NCc2ccccc2)cnn1-c1ccccc1 was read as TDP1 cell CPT -16% and N370S GC mod 1%.
COC1=C(Nc2ccccc2OC)C(=O)c2ccccc2C1=O was read as TDP1 cell CPT -4% and N370S GC mod -2%.
`COc1ccc(-c2nn(CCC#N)cc2C(=O)Nc2cccc(C(=O)O)c2)cc1OC` gave TDP1 cell CPT -1% and N370S GC mod -5%.
Screening CCC(=O)OCc1c(C(F)(F)F)nn(C)c1Oc1cccc(C(F)(F)F)c1 returned TDP1 cell CPT -24% and N370S GC mod 0%.
Cc1ccnc(Nc2nc3ccccc3o2)n1 was read as TDP1 cell CPT inconclusive and N370S GC mod -1%.
`CCC(C)(C)NC(=S)Nc1ccccc1C` gave TDP1 cell CPT 6% and N370S GC mod 6%.
For O=C(Nc1ccc(Oc2ccccc2)nc1)C1CCCCN1Cc1ccc(OCCO)cc1 (stereo not given) the results were TDP1 cell CPT -17% and N370S GC mod 3%.
`Cc1cc[n+](-c2[nH]c(=O)sc2/C=N/NC([S-])=Nc2ccccc2)cc1` gave TDP1 cell CPT inconclusive and N370S GC mod 5%.
For COc1ccc(CN(C)C(=O)Cc2c[nH]c3ccccc23)c(OC)c1OC the results were TDP1 cell CPT inconclusive and N370S GC mod -5%.
For O=C(COc1ccc(Cl)cc1Br)NNC(=O)C(=O)N1CCCCC1 the results were TDP1 cell CPT -11% and N370S GC mod 1%.
Screening O=C(NCCc1ccccc1)C(=O)NCC1OCCN1S(=O)(=O)c1ccc(Br)cc1 (stereo not given) returned TDP1 cell CPT inconclusive and N370S GC mod 6%.
Nc1ccc(S(=O)(=O)c2ccc(N)c(N)c2)cc1 was read as TDP1 cell CPT 7% and N370S GC mod -2%.
`O=C(CSc1nnc(-c2ccc(S(=O)(=O)N3CCCC3)cc2)o1)NCC1CCCO1` (stereo not given) gave TDP1 cell CPT -8% and N370S GC mod -4%.
`S=C1NCN(C2CCCCC2)CN1Cc1ccccc1` gave TDP1 cell CPT 4% and N370S GC mod 10%.

Structural class, the entries above containing two or more sulfur atoms.
`CC(=O)c1ccc(N2C(=NC(=O)COc3ccccc3)SC3CS(=O)(=O)CC32)cc1` (stereo not given) gave TDP1 cell CPT 0% and N370S GC mod 1%.
`CC(C)CN(C1CCS(=O)(=O)C1)S(=O)(=O)c1ccc(C(C)C)cc1` (stereo not given) gave TDP1 cell CPT inconclusive and N370S GC mod 0%.
`Cc1cc[n+](-c2[nH]c(=O)sc2/C=N/NC([S-])=Nc2ccccc2)cc1` gave TDP1 cell CPT inconclusive and N370S GC mod 5%.
`O=C(CSc1nnc(-c2ccc(S(=O)(=O)N3CCCC3)cc2)o1)NCC1CCCO1` (stereo not given) gave TDP1 cell CPT -8% and N370S GC mod -4%.

The main list resumes; the seven compounds before the break are reprinted first.
`Cc1cc[n+](-c2[nH]c(=O)sc2/C=N/NC([S-])=Nc2ccccc2)cc1` gave TDP1 cell CPT inconclusive and N370S GC mod 5%.
For COc1ccc(CN(C)C(=O)Cc2c[nH]c3ccccc23)c(OC)c1OC the results were TDP1 cell CPT inconclusive and N370S GC mod -5%.
For O=C(COc1ccc(Cl)cc1Br)NNC(=O)C(=O)N1CCCCC1 the results were TDP1 cell CPT -11% and N370S GC mod 1%.
Screening O=C(NCCc1ccccc1)C(=O)NCC1OCCN1S(=O)(=O)c1ccc(Br)cc1 (stereo not given) returned TDP1 cell CPT inconclusive and N370S GC mod 6%.
Nc1ccc(S(=O)(=O)c2ccc(N)c(N)c2)cc1 was read as TDP1 cell CPT 7% and N370S GC mod -2%.
`O=C(CSc1nnc(-c2ccc(S(=O)(=O)N3CCCC3)cc2)o1)NCC1CCCO1` (stereo not given) gave TDP1 cell CPT -8% and N370S GC mod -4%.
`S=C1NCN(C2CCCCC2)CN1Cc1ccccc1` gave TDP1 cell CPT 4% and N370S GC mod 10%.
COCCN1Cc2cccc(C(=O)NCc3ccccn3)c2C1=O was read as TDP1 cell CPT 0% and N370S GC mod 11%.
Screening CSc1ccccc1NC(=O)CN(C)Cc1ccc(Br)cc1 returned TDP1 cell CPT -6% and N370S GC mod 4%.
Cc1cc(C)c(S(=O)(=O)N2CCCC(C(=O)NC3CC3)C2)c(C)c1 (stereo not given) was read as TDP1 cell CPT -23% and N370S GC mod -9%.
Screening CC(Nc1ccc(N2CCOCC2)cc1)C(=O)N1c2ccccc2CC1C (stereo not given) returned TDP1 cell CPT -24% and N370S GC mod -6%.
`CCN(CC)C(=O)c1c2c(nc3ccccc13)-c1ccccc1CC2` gave TDP1 cell CPT inconclusive and N370S GC mod 3%.
CC(C)CN1CN(Cc2ccco2)CNC1=S was read as TDP1 cell CPT -22% and N370S GC mod 0%.
Screening CNC(=S)NCC(O)c1ccc([N+](=O)[O-])cc1 (stereo not given) returned TDP1 cell CPT -7% and N370S GC mod -3%.
`CCOC(=O)c1ccccc1NC(=O)n1ncc2cc(Cl)ccc21` gave TDP1 cell CPT -3%.
Screening Cc1ccc(S(=O)(=O)N2CCOCC2)cc1C(=O)N1CCCCCC1 returned TDP1 cell CPT -9% and N370S GC mod -9%.
Screening NS(=O)(=O)c1cccc(NC(=O)c2cccs2)c1 returned TDP1 cell CPT 21µM* and N370S GC mod 9%.
CCc1cccc(Oc2nn[nH]n2)c1 was read as TDP1 cell CPT -10% and N370S GC mod -11%.
`Cc1cccc(N(CC(=O)NC(C)C)C(=O)c2ccc(N3CCCC3)nc2)c1` gave TDP1 cell CPT -2% and N370S GC mod -4%.
For OCCN(Cc1ccccc1)CC(O)COc1ccc2c(c1)OCO2 (stereo not given) the results were TDP1 cell CPT 3% and N370S GC mod -14%.
Screening COc1ccc(-n2nnnc2SCC(=O)N2CCOCC2)cc1 returned TDP1 cell CPT -19% and N370S GC mod 0%.
Screening O=c1c2cn[nH]c2[nH]c(=S)n1-c1cccc2ccccc12 returned TDP1 cell CPT -7% and N370S GC mod 1%.
For COc1cccc(NC(=O)CSc2nnc(Cn3nnc4ccccc43)n2C)c1 the results were TDP1 cell CPT 5% and N370S GC mod -4%.
Cc1ccc(C(C)C)cc1OCC(=O)NNC(=O)Nc1ccccc1 was read as TDP1 cell CPT inconclusive and N370S GC mod -1%.
`NS(=O)(=O)c1ccc(N2C(=O)C3C4CC(C(Br)C4Br)C3C2=O)cc1` (stereo not given) gave TDP1 cell CPT -5% and N370S GC mod -8%.
CCCCN(C)CCCNC(=O)C1CCC(CNS(=O)(=O)c2c(C)cc(C)cc2C)CC1 (stereo not given) was read as TDP1 cell CPT inconclusive and N370S GC mod -14%.
`Cc1c(Cl)cnc(NC(=O)COC(=O)/C=C/c2ccco2)c1Cl` gave TDP1 cell CPT 5% and N370S GC mod 0%.
`CC1(C)CC(=O)c2cc(C(=O)Nn3cnnc3)c(=O)n(-c3ccccc3)c2C1` gave TDP1 cell CPT 2% and N370S GC mod -1%.
For COc1cc(NC(=O)Cn2c(C)cc3ccccc3c2=O)cc(OC)c1OC the results were TDP1 cell CPT inconclusive and N370S GC mod 4%.
`Cc1ccc(C(=O)OCC(=O)NCc2cccc(Cl)c2)cc1S(=O)(=O)N1CCCCC1` gave TDP1 cell CPT inconclusive and N370S GC mod 5%.
`COc1ccc(N2CCN(Cc3nc4c(c(=O)n(C)c(=O)n4C)n3CC(C)=O)CC2)cc1` gave TDP1 cell CPT 13µM* and N370S GC mod 2%.
`Cc1cc(C(=O)Nc2ccc(N3CCCCC3)cc2)no1` gave TDP1 cell CPT -11% and N370S GC mod 2%.
Cc1ccc(C(=O)N2CCc3ccccc3C2)cc1S(=O)(=O)N1CCOCC1 was read as TDP1 cell CPT inconclusive and N370S GC mod -5%.
For Cc1oc2c(c(C)cc3oc(=O)c(CC(=O)NCCCN4CCCC4=O)c(C)c32)c1C the results were TDP1 cell CPT -27% and N370S GC mod 2%.
For COc1ccc(CNC(=O)c2ccc3oc(C(C)C)nc3c2)cc1 the results were TDP1 cell CPT -27% and N370S GC mod -6%.
COCCCNC(=O)CCc1ccccc1 was read as TDP1 cell CPT 1% and N370S GC mod -2%.
COc1cccc(C(NC(=O)c2ccccc2F)NC(=O)c2ccccc2F)c1 was read as TDP1 cell CPT 0% and N370S GC mod 3%.
O=C(COc1ccc(Cl)cc1)NCCc1ccccn1 was read as TDP1 cell CPT -8% and N370S GC mod -4%.
Screening COc1cccc(NC(=S)NCc2ccncc2)c1 returned TDP1 cell CPT -7% and N370S GC mod -2%.
`CCOc1ccccc1N(CC(=O)OC)S(=O)(=O)c1ccccc1` gave TDP1 cell CPT -5% and N370S GC mod 0%.
Screening COc1ccc(C(=O)Cn2nnc(-c3ccccc3NC(=O)C3CCCCC3)n2)cc1 returned TDP1 cell CPT 23µM* and N370S GC mod 5%.
For Cc1sc2ncnc(N/N=C/c3ccc(O)cc3)c2c1C the results were TDP1 cell CPT inconclusive and N370S GC mod -9%.
Screening O=C1OC(Nc2ccc(Cl)cn2)c2ccccc21 (stereo not given) returned TDP1 cell CPT 4% and N370S GC mod 0%.
O=C(CC1C(=O)NCCN1Cc1cccc(C(F)(F)F)c1)NCCc1cnccn1 (stereo not given) was read as TDP1 cell CPT -15% and N370S GC mod 2%.
COc1cccc(N=Nc2c(=O)[nH]n3c(=O)c4c([nH]c23)CCC4)c1 was read as TDP1 cell CPT -25% and N370S GC mod 4%.
COCC1CCN(C(=O)c2ccc(OC3CCN(Cc4ccccn4)CC3)cc2)C1 (stereo not given) was read as TDP1 cell CPT -21% and N370S GC mod -3%.
`Cc1c(NC(=O)C(C)Sc2n[nH]c(N)n2)c(=O)n(-c2ccccc2)n1C` (stereo not given) gave TDP1 cell CPT -2% and N370S GC mod 1%.
For CSc1ccc(C(=O)C2CCCN(C(=O)Cn3cnnn3)C2)cc1 (stereo not given) the results were TDP1 cell CPT -3% and N370S GC mod -3%.
For Cc1cc(C)cc(N2C(=O)CC(Sc3ccccc3C(=O)O)C2=O)c1 (stereo not given) the results were TDP1 cell CPT 4.1µM* and N370S GC mod -21%.
